# Source: PubChem (Broad Institute)
# MLL AF4-AF9 inh: inhibitors of human MLL-AF4/AF9 interaction | hit rate 0.47% among 350,000 | P42568 | inhibition, % at 10 µM | AlphaScreen, biotin-AF4 peptide binding to FLAG-AF9 | AID 651704;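 active = every replicate reaching a set inhibition limit, whatever the replicate mean, cut at about 25% in these data; inconclusive = mean inhibition reaches that limit but some replicates miss it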;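 also: 0% = plate neutral control median and 100% = total signal loss; the record names both 10 and 1 µM as test concentration; the first replicate is given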
# Target sequence (P42568 whole entry, looked up): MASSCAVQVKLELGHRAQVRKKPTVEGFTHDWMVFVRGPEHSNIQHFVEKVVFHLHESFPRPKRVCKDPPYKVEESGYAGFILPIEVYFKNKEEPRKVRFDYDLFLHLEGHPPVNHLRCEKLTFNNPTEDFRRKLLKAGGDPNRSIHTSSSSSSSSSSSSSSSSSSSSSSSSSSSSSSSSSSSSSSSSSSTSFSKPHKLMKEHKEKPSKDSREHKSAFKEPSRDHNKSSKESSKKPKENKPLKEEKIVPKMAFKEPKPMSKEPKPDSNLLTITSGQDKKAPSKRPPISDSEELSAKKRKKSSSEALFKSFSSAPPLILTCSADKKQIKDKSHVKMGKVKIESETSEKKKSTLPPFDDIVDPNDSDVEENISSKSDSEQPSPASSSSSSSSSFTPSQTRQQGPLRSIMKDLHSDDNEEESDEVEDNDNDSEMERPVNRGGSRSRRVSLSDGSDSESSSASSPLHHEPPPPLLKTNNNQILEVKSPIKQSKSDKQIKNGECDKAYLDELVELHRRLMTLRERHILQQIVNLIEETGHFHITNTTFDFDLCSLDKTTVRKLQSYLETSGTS
# The depositor's hits bear a star; ? = inconclusive.
# Start of the data: the first 7 records as a preview:
SMILES,MLL AF4-AF9 inh
C[C@H](CO)N1C[C@H](C)[C@H](CN(C)C(=O)Cc2ccccc2)OCCCC[C@H](C)Oc2ccc(NC(=O)Cc3ccccc3)cc2C1=O,-3.7
CC(C)C#Cc1ccc([C@@H]2[C@@H](CO)N3CCCCN(C(=O)c4ccc5c(c4)OCO5)C[C@@H]23)cc1,0.5
CN(C)CC(=O)N[C@H]1C=C[C@H](CC(=O)O)O[C@H]1CO,-2.2
CC(C)C#Cc1ccc2c(c1)O[C@@H](CN(C)Cc1ccccn1)[C@@H](C)CN([C@H](C)CO)S2(=O)=O,7.9
O=S1(=O)CC(N2CCCCC2)CN1CCc1ccccc1 (centres undefined),-0.5
C[C@@H]1CCCCO[C@H](CN(C)C)[C@@H](C)CN([C@@H](C)CO)C(=O)c2cc(NS(=O)(=O)c3cccs3)ccc2O1,-1.3
CC(=NNC(N)=O)c1ccc(Cl)c(-n2cccc2)c1,5.1

# The list itself, from the start:
SMILES,MLL AF4-AF9 inh
C[C@H](CO)N1C[C@H](C)[C@H](CN(C)C(=O)Cc2ccccc2)OCCCC[C@H](C)Oc2ccc(NC(=O)Cc3ccccc3)cc2C1=O,-3.7
CC(C)C#Cc1ccc([C@@H]2[C@@H](CO)N3CCCCN(C(=O)c4ccc5c(c4)OCO5)C[C@@H]23)cc1,0.5
CN(C)CC(=O)N[C@H]1C=C[C@H](CC(=O)O)O[C@H]1CO,-2.2
CC(C)C#Cc1ccc2c(c1)O[C@@H](CN(C)Cc1ccccn1)[C@@H](C)CN([C@H](C)CO)S2(=O)=O,7.9
O=S1(=O)CC(N2CCCCC2)CN1CCc1ccccc1 (centres undefined),-0.5
C[C@@H]1CCCCO[C@H](CN(C)C)[C@@H](C)CN([C@@H](C)CO)C(=O)c2cc(NS(=O)(=O)c3cccs3)ccc2O1,-1.3
CC(=NNC(N)=O)c1ccc(Cl)c(-n2cccc2)c1,5.1
COc1ccc2c3c(n(C)c2c1)[C@@H](CO)N(Cc1ccccc1)CC31CCN(C(=O)Nc2cccc(F)c2)CC1,-1.6
O=C(C[C@@H]1C[C@H]2c3cc(NS(=O)(=O)c4ccccc4)ccc3O[C@H]2[C@H](CO)O1)NCC1CC1,-2.4
CCN(CC)C(=O)c1cccc(-c2csc(C(O)(c3ccccc3)C(F)(F)F)n2)c1 (centres undefined),-5.3
COc1ccc(C#Cc2ccc([C@@H]3[C@H](CO)N4CCCCN(C(=O)Nc5cccc(F)c5)C[C@@H]34)cc2)cc1,1.0
O=C(C[C@@H]1CC[C@H](NC(=O)CC2CC2)[C@@H](CO)O1)NCc1ccc(-c2ccccc2)cc1,-0.4

# Given field by field: 3 of the compounds above
CC(C)C#Cc1ccc2c(c1)O[C@@H](CN(C)Cc1ccccn1)[C@@H](C)CN([C@H](C)CO)S2(=O)=O
  MLL AF4-AF9 inh: 7.9

O=S1(=O)CC(N2CCCCC2)CN1CCc1ccccc1 (centres undefined)
  MLL AF4-AF9 inh: -0.5

C[C@@H]1CCCCO[C@H](CN(C)C)[C@@H](C)CN([C@@H](C)CO)C(=O)c2cc(NS(=O)(=O)c3cccs3)ccc2O1
  MLL AF4-AF9 inh: -1.3

# (next part)
SMILES,MLL AF4-AF9 inh
O=C(C[C@H]1C=C[C@H](NC(=O)C2CCOCC2)[C@H](CO)O1)Nc1nccs1,-7.5
Cc1noc(C)c1S(=O)(=O)Nc1ccc2c(c1)C(=O)N([C@H](C)CO)C[C@H](C)[C@@H](CN(C)S(=O)(=O)c1cccs1)O2,-3.7
COc1cccc(-c2cnc3c(c2)C(=O)N([C@H](C)CO)C[C@H](C)[C@H](CN(C)C)O3)c1,-2.6
O=C(NC(c1ccc(Cl)cc1)c1cnccn1)C1CCN(CCCOc2ccccc2)CC1 (centres undefined),-2.2
C[C@H](CO)N1C[C@H](C)[C@H](CN(C)Cc2ccc(C(=O)O)cc2)Oc2ccc(NC(=O)CCC(F)(F)F)cc2C1=O,-4.6
COC(=O)C[C@H]1CC[C@@H]2[C@@H](COc3ccc(NC(=O)c4ccc(OC)cc4)cc3C(=O)N2C)O1,-0.8
COc1ccc(C(O)c2ncc(-c3ccccc3)[nH]2)cc1F (centres undefined),-1.3
Cc1ccccc1-c1nc(NC(C)C)nc2cc(-c3ccccc3)sc12,-3.5
CC=Cc1ccc2n(c1=O)C[C@H]1[C@H](CO)[C@@H](C(=O)Nc3ccccc3)N(CC)[C@@H]21 (mixture of isomers),-0.5
Cc1ccc(S(=O)(=O)N(C)C[C@H]2OCCCC[C@@H](C)Oc3ccc(N(C)C)cc3C(=O)N([C@H](C)CO)C[C@H]2C)cc1,16
C[C@H](CO)N1C[C@H](C)[C@@H](CN(C)C(=O)Nc2ccc(F)cc2)OCCCC[C@H](C)Oc2ccc(NC(=O)NC3CCCCC3)cc2C1=O,-2.9
C[C@@H]1CN([C@@H](C)CO)C(=O)c2cc(NC(=O)Nc3ccccc3)ccc2O[C@@H]1CN(C)Cc1ccc(C(=O)O)cc1,-2.5
COc1ccc(S(=O)(=O)Nc2ccc3c(c2)C(=O)N([C@H](C)CO)C[C@@H](C)[C@H](CN(C)S(=O)(=O)c2ccc(F)cc2)O3)cc1,6.6
O=C(C[C@@H]1C[C@H]2c3cc(NC(=O)Nc4ccccc4)ccc3O[C@H]2[C@H](CO)O1)NCc1ccncc1,3.3
Cc1ccccc1S(=O)(=O)NCC[C@H]1CC[C@@H](NC(=O)C2CC2)[C@@H](CO)O1,-1.1
N#C[C@@H]1[C@@H](c2ccc(C3=CCCCC3)cc2)[C@H](CO)N1C(=O)c1ccccn1,2.2
C[C@H](NC(=O)N(C)C[C@@H]1OCc2ccccc2-c2c(n(C)c3ccccc23)C(=O)N([C@@H](C)CO)C[C@@H]1C)c1ccccc1,1.8
C[C@@H]1CN([C@@H](C)CO)C(=O)c2cccc(NC(=O)C3CCOCC3)c2O[C@H]1CN(C)Cc1ccc(Oc2ccccc2)cc1,2.1
CS(=O)(=O)N1[C@H](C(=O)NC2CCC2)[C@@H](CO)[C@@H]2Cn3c(ccc(-c4ccccc4)c3=O)[C@@H]21,1.9
COc1ccccc1Cc1c(-c2ccc(F)cc2)nc2ccc(Cl)cn12,-0.3
O=C(CC[C@H]1O[C@@H](n2ccc(=O)[nH]c2=O)[C@H](O)[C@@H]1O)NCc1ccc2c(c1)OCO2,-0.5
COc1ccccc1-c1nnc(NC(=O)C2CCCN2S(=O)(=O)c2cccs2)o1 (centres undefined),-1.7
C[C@@H]1CN([C@@H](C)CO)C(=O)c2cc(C#CCN(C)C)cnc2O[C@@H]1CN(C)C(=O)Cc1cccnc1,0.8
CO[C@H]1CN(C)C(=O)c2ccc(NC(=O)c3ccccc3)cc2OC[C@H](C)N(C(C)=O)C[C@@H]1C,-12
NC(=O)[C@@H]1[C@H]2C(=O)O[C@H](c3ccccc3)[C@H](c3ccccc3)N2[C@H](c2ccc(OCCO)cc2)[C@@]12C(=O)Nc1ccccc12,10
CN(C)c1ccc(C=Cc2ccnc3ccccc23)cc1N,15
CNC[C@H]1Oc2ccc(NS(C)(=O)=O)cc2C(=O)N([C@@H](C)CO)C[C@H]1C,-5.4
COc1cccc(C(=O)Nc2ccc3c(c2)C(=O)N(C)[C@@H]2CC[C@@H](CC(=O)N[C@H](C)c4ccccc4)O[C@H]2CO3)c1,-0.6
COc1ccc(CN(C)C[C@H]2OCCCC[C@H](C)Oc3ccc(NS(=O)(=O)c4ccccc4)cc3C(=O)N([C@H](C)CO)C[C@H]2C)cc1,5.4
C[C@H](CO)N1C[C@H](C)[C@H](CN(C)Cc2ccc(Oc3ccccc3)cc2)Oc2ccc(NC(=O)NC3CCCCC3)cc2CC1=O,-0.3
COCCNC(=O)C[C@@H]1C[C@H]2c3cc(NS(C)(=O)=O)ccc3O[C@H]2[C@@H](CO)O1,-2.0
CCS(=O)(=O)N1[C@H](C#N)[C@@H](c2ccc(C#CC(C)C)cc2)[C@@H]1CO,0.2
CCC(=O)N1C[C@H](C)[C@H](OC)CN(C)C(=O)c2ccc(NS(C)(=O)=O)cc2OC[C@@H]1C,-2.7
C[C@H](CO)N1C[C@H](C)[C@@H](CN(C)C(=O)Cc2ccncc2)Oc2ncc(C#C[C@@H](C)O)cc2C1=O,-2.8
CC(C)NC(=O)C1Cc2c(-c3ccccc3Oc3ccccc3)ccnc2O1 (centres undefined),-3.7
CC(C)NC(=O)N[C@@H]1C=C[C@H](CC(=O)O)O[C@H]1CO,0.2
O=C(NCCN1CCC(n2c(=O)[nH]c3ccccc32)CC1)c1ccc(F)cc1F,-3.4
O=C(NCC[C@@H]1CC[C@@H](NC(=O)c2cccnc2)[C@H](CO)O1)Nc1ccc(F)cc1,?
Cc1noc(C)c1NC(=O)N[C@@H]1CC[C@@H](CC(=O)NCCCN(C)C)O[C@@H]1CO,-2.1
COc1ccccc1NC(=O)N1C[C@@H](C)[C@H](OC)CN(C)C(=O)c2cc(NC(=O)c3cc(C)on3)ccc2OC[C@H]1C,0.8
C[C@H]1CCCCO[C@H](CN(C)C(=O)c2ccncc2)[C@@H](C)CN([C@@H](C)CO)C(=O)c2cc(NS(=O)(=O)c3ccc(F)cc3)ccc2O1,-1.3
O=C(C[C@H]1CC[C@H](NC(=O)Nc2ccc(C(F)(F)F)cc2)[C@H](CO)O1)NCc1cc(F)cc(F)c1,-0.9
CC(=O)N1[C@@H](CO)[C@@H]2c3ccccc3N(S(=O)(=O)c3ccccc3F)C[C@@H]21,-1.0
C[C@H](CO)N1C[C@H](C)[C@H](CN(C)CC2CCCC2)Oc2ncc(C#Cc3cccc(F)c3)cc2C1=O,6.3
Cc1ccc(S(=O)(=O)N(C)C[C@@H]2OCCCC[C@H](C)Oc3ccc(NC(=O)Nc4ccc(C(F)(F)F)cc4)cc3C(=O)N([C@@H](C)CO)C[C@H]2C)cc1,-1.4
CN1CCN(C(=O)c2cc3c(c(-c4cccc(C#CC(C)(C)O)c4)n2)[C@H](CCO)N(S(=O)C(C)(C)C)C3)CC1 (some centres undefined),0.3
COCC(=O)N1[C@@H]2c3ccc(C4=CCCC4)c(=O)n3C[C@@H]2[C@@H](CO)[C@@H]1C(=O)N1CCN(C)CC1,-4.2
CN(CCO)C(=O)c1nc[nH]c1C(=O)N(C)Cc1ccccc1,2.1
C[C@@H]1CN([C@H](C)CO)C(=O)c2cc(-c3ccccc3F)cnc2O[C@@H]1CN(C)Cc1ccccc1F,0.0
CCC(=O)N1CCCC1(C)C(=O)NCc1ccc(SC)cc1 (centres undefined),-12
C/C=C/c1ccc2c(c1)O[C@H](CN(C)C(=O)Nc1ccc(OC)cc1)[C@@H](C)CN([C@H](C)CO)S2(=O)=O,2.2
CCCC(=O)Nc1ccc2c(c1)OC[C@@H](C)N(C(=O)c1ccncc1)C[C@H](C)[C@@H](OC)CN(C)C2=O,-2.2
COc1ccccc1NC(=O)N1C[C@H](O)COC[C@@H]2O[C@H](CC(=O)NCCc3ccncc3)CC[C@H]21,-0.6
CCNC(=O)C[C@H]1CC[C@H]2[C@@H](COC[C@H](O)CN2C(=O)CC)O1,-1.4
CCCNC(=O)C1(C)CCCN(Cc2c(F)cccc2F)C1 (centres undefined),-2.4
COc1ccc(NC(=O)N[C@@H]2CC[C@H](CCn3cc(-c4ccccc4F)nn3)O[C@H]2CO)cc1,0.2
C/C=C/c1ccc([C@@H]2[C@H](CO)N3CCCCN(S(=O)(=O)c4cccs4)C[C@@H]23)cc1,13
C[C@H]1CN([C@@H](C)CO)C(=O)c2cc(-c3ccccc3)cnc2O[C@H]1CN(C)Cc1ccccc1,1.7
Cc1noc(C)c1NC(=O)N[C@@H]1C=C[C@@H](CC(=O)NCCCN(C)C)O[C@H]1CO,4.4
COc1ccc(Cc2c(C3CCCCC3)nc3c(Cl)cc(C(F)(F)F)cn23)c(C)c1,0.7

# Next section.
SMILES,MLL AF4-AF9 inh
CCCN1C[C@@H](C)[C@@H](OC)CN(C)C(=O)c2ccc(NC(=O)Nc3cccc(OC)c3)cc2OC[C@@H]1C,-2.8
CC(C)NC(=O)Nc1cccc2c1O[C@@H](CN(C)Cc1ccc(Cl)c(Cl)c1)[C@H](C)CN([C@@H](C)CO)C2=O,4.5
C[C@@H]1CN([C@H](C)CO)S(=O)(=O)c2ccc(Br)cc2O[C@@H]1CN(C)C,-4.7
CC(O)(c1ccc(F)c(F)c1)c1nc(-c2ccoc2)cs1 (centres undefined),3.7
O=C(c1ccccc1F)N1CC[C@H]2[C@H](CO)Nc3ccc(-c4ccc(F)cc4)cc3[C@H]21,0.9
O=S1(=O)CC(N2CCN(c3ncccn3)CC2)CN1Cc1ccc(F)cc1 (centres undefined),-0.9
COc1ccc(-c2cnc3c(c2)C(=O)N([C@H](C)CO)C[C@@H](C)[C@@H](CN(C)C(=O)Cc2ccccn2)O3)cc1,0.9
C[C@@H]1CN([C@@H](C)CO)C(=O)c2cc(-c3cncnc3)cnc2O[C@H]1CN(C)C(=O)c1ccccc1F,0.4
CC(C)NC(=O)Nc1ccc2c(c1)CC(=O)N([C@@H](C)CO)C[C@H](C)[C@@H](CN(C)CC1CCCCC1)O2,-0.1
COc1ccc(CN(C)C[C@H]2Oc3c(NC(=O)c4ccncc4)cccc3C(=O)N([C@@H](C)CO)C[C@@H]2C)cc1,7.6
CCCNC(=O)C[C@H]1CC[C@H]2[C@@H](COC[C@@H](O)CN2C(=O)Nc2ccccc2OC)O1,-1.1
C[C@H]1CN([C@@H](C)CO)C(=O)c2cc(NS(=O)(=O)c3ccccc3)ccc2O[C@H]1CN(C)Cc1ccc(C(=O)O)cc1,-1.6
COc1ccc(S(=O)(=O)N(C)C[C@@H]2OCCCC[C@H](C)Oc3ccc(NS(=O)(=O)c4ccc(C)cc4)cc3C(=O)N([C@@H](C)CO)C[C@H]2C)cc1,-7.6
COc1ccccc1-c1cn(CC[C@@H]2CC[C@H](NC(=O)C3CCCC3)[C@H](CO)O2)nn1,-0.8
CCCN1[C@@H]2c3ccc(-c4ccccc4)c(=O)n3C[C@H]1[C@H](CO)[C@H]2C(=O)NCC,3.9

# These rows are one share of the data; count on the stated rates, not on these rows.
